# RE007 growth inh – less growth of the S. pombe RE007 Vpr strain; S. pombe RE007 Vpr strain, BacTiter-Glo ATP luminescence, 24 h; control for the full effect not named in the record; Potency, µM (doses to about 92.2 µM), inactives show at the top dose activity change, negative = less growth; 360,000 tested, 0.21% active; active = well fitted falling curve with a large enough effect; inconclusive = small, poorly fitted or top-dose-only effect; inactive = no such curve, though single readings can be large or run the other way;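 further: on the % scale 0 is the no-effect control and ±100 the full control effect; nearly all actives have a fitted effect of over 50% in size; the assay follows cell death caused by Vpr and the record does not say whether a fall means rescue or toxicity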
#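 Fission yeast RE007 carrying one integrated HIV-1 vpr copy, seeded at OD 0.01 in PMG+AL medium with 23 nL pinned compound. Grown 24 h at 30 degrees; viability read by BacTiter-Glo luminescence after 5 min.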
# LASV entry inh – Lassa virus entry inhibition | Lassa virus pseudotype entry inhibition, cell reporter; control for the full effect not named in the record | Potency, µM (doses to about 37.9 µM), for inactives: at the highest dose activity change, negative = inhibition, actives largely listed as inhibitors | 300,000 tested, 1.2% active; active means well fitted inhibition curve with a large enough effect; inconclusive means small, poorly fitted or top-dose-only effect, or effect the other way; inactive means flat fitted curve, though single readings scatter; tested in HEK293 cells; further: on the % scale 0 is the no-effect control and ±100 the full control effect; nearly all actives have a fitted effect of over 50% in size; luciferase read-out
# StopGo reporter – FMDV 2A StopGo reporter, luciferase signal; 410,000 tested, 1.2% active; human cells with a luciferase reporter of 2A StopGo recoding; control for the full effect not named in the record; Potency, µM (doses to about 57.9 µM), for the others: at the highest dose signal change, negative = less light; active = well fitted falling curve with a large enough effect; inconclusive = small, poorly fitted or top-dose-only effect; inactive = no such curve, though single readings can be large or run the other way; tested in HEK293T cells; further: on the % scale 0 is the no-effect control and ±100 the full control effect; nearly all actives have a fitted effect of over 45% in size; luciferase light after 4 h
# Cruzain noTriton – inhibitors of Trypanosoma cruzi cruzain without detergent | 200,000 tested, 2.3% active | purified cruzain, Z-FR-AMC fluorescence, no detergent | P25779 | Potency, µM, for inactives: max response, negative = inhibition, usual class: inhibitors;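 further: plate controls were enzyme without inhibitor for no effect and buffer without enzyme for full effect; nearly all actives have a fitted effect of over 40% in size; top concentration of the series not given in the record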
# Target sequence (P25779 123-467 limits assumed): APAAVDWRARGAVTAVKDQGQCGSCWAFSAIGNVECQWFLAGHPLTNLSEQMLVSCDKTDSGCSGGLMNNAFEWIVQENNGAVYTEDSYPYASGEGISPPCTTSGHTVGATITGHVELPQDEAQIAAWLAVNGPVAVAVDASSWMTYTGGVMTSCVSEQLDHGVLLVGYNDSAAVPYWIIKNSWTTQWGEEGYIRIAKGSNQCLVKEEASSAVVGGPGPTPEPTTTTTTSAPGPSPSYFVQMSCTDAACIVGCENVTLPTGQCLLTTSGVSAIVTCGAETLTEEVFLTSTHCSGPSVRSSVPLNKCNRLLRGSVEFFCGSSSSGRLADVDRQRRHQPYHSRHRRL
#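 Purified cruzain at 1.5 nM, pre-incubated 15 min with compound at room temperature in 100 mM sodium acetate pH 5.5, 5 mM DTT, 0.00005% Triton X-100. Reaction started with 2 uM Z-FR-AMC; AMC fluorescence increase over 60 s gives rate.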
# SARS PLpro yeast – SARS-CoV PLP inhibition in yeast. S. cerevisiae expressing SARS-CoV PLpro, growth rescue; control for the full effect not named in the record. Potency, µM (doses to about 32.9 µM), without a hit: at the top dose activity, positive = growth rescue. 330,000 tested, 0.19% active; active means well fitted rising curve with a large enough effect; inconclusive means small, poorly fitted or top-dose-only effect; inactive means no such curve, though single readings can be large or run the other way; further: 0% is about no effect; nearly all actives have a fitted effect of over 55% in size; growth read by luminescence after 48 h
# Cruzain Triton – inhibitors of Trypanosoma cruzi cruzain with detergent. purified cruzain, Z-FR-AMC fluorescence, 0.01% Triton. Potency, µM, for inactives: max response, negative = inhibition, actives largely listed as inhibitors. 200,000 tested, 0.43% active;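 further: plate controls were neutral wells for no effect and buffer without enzyme for full effect; nearly all actives have a fitted effect of over 40% in size; top concentration of the series not given in the record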
#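 Z-FR-AMC hydrolysis (2 uM substrate) by cruzain (1.5 nM) monitored kinetically at ex 360/em 450 nm after 15 min room-temperature compound exposure; 0.01% Triton X-100, pH 5.5, 5 mM DTT.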
# Marburg entry inh – blocks Marburg virus binding to or entry into cells; 300,000 tested, 1.8% active; Potency, µM (highest dose often 37.8 µM), for the others: at the highest dose activity change, negative = inhibition, actives largely listed as inhibitors; Marburg virus pseudotyped entry inhibition, cell reporter; control for the full effect not named in the record; about a third of the inactives were read at about 46 µM; active = well fitted inhibition curve with a large enough effect; inconclusive = small, poorly fitted or top-dose-only effect, or effect the other way; inactive = flat fitted curve, though single readings scatter; tested in HEK293 cells; about a fifth of its hits are not listed in these tables; further: on the % scale 0 is the no-effect control and ±100 the full control effect; luciferase read-out
# NS1 inh – blocks influenza NS1 protein function; AID 2326; 270,000 tested, 0.4% active; S. cerevisiae slowed by influenza A NS1, growth recovery by OD600; Potency, µM (top dose mostly 46.1 µM), inactives show top-dose activity, positive = more growth; active means well fitted rising curve with a large enough effect; inconclusive means small, poorly fitted or top-dose-only effect; inactive means no such curve, though single readings can be large or run the other way; further: nearly all actives have a fitted effect of over 50% in size
#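 Compounds were scored for reversing the slow growth caused by influenza A NS1 in S. cerevisiae, measured by optical density at 600 nm. Assay medium contained 2% galactose at pH 6.0; NS1-free yeast of the same strain were the positive control.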
# Numbers without * were called inactive; u = inconclusive; x = not tested or not shown; & = joins results of further samples; [ ] = remark or other dose. Unless noted, the call rests on the fitted dose curve; in most records, active means well fitted curve in the direction sought with a large enough effect; inconclusive means small, poorly fitted or top-dose-only effect, or another doubt; inactive means no such curve, though single readings can be large; an effect the other way counts as inactive or inconclusive. Potency means the concentration at half of the fitted maximal effect.
SMILES,RE007 growth inh,LASV entry inh,StopGo reporter,Cruzain noTriton,SARS PLpro yeast,Cruzain Triton,Marburg entry inh,NS1 inh
Nc1nnn(Cc2ccccc2)n1,0.5%,16.2%,-2.4%,-8.7%,-12.5%,-0.1%,-0.3%,0.3%
CCOc1ccc(NC(=O)N2CCC(NC(=O)c3ccco3)CC2)cc1,-8.6%,-6.0%,17.5%,-5.7%,-0.8%,-1.7%,15.2%,u
CCNC(=O)c1sc(=S)n(-c2ccc(C)cc2)c1N,-2.4%,1.0%,18.4%,-0.6%,4.4%,-1.7%,-10.8%,8.3%
COc1cccc(NC(=O)C(C#N)Cc2ccncc2)c1 (stereo not drawn),-16.2%,4.4%,-7.1%,-11.4%,-0.3%,0.0%,6.5%,1.6%
Cc1ccc(C)c(N(C(=O)CNC(=O)c2ccco2)C(C(=O)NC2CCCCC2)c2cccnc2)c1 (stereo not drawn),-7.0%,u,0.7%,x,3.6%,x,-6.1%[46.1 µM],-5.5%
O=C(c1cc2ccccc2o1)N1CCN(c2cccc(Cl)c2)CC1,-11.8%,-2.2%,-12.5%,x,25.0%,x,28.4%,6.1%
O=C(c1cccnc1)N1CCN(CCCc2ccccc2)CC1,7.9%,-14.4%,x,6.5%,9.7%,3.7%,-14.7%,-0.6%
CCOC(=O)c1[nH]cc(-c2ccccc2)c1N1CCOCC1,-15.1%,-3.8%,u,-4.5%,-1.0%,0.1%,u,-85.5%
Cc1nc(NC(=O)CSc2nnc(C)n2CC2CCCO2)sc1C (stereo not drawn),5.4%,-0.9%,2.3%,-8.0%,-2.6%,2.6%,13.6%,-2.5%
CCCCSc1ncnc2[nH]ncc12,-7.1%,x,-0.8%,x,0.2%,x,x,-7.2%
Cc1ccc(SC(C)c2nc(-c3ccccc3)no2)cc1 (stereo not drawn),0.5%,24.2%,30.4%[activator],-1.6%,-24.3%,-6.0%,10.9%,-9.2%
O=C(CNc1n[nH]c(=O)[nH]c1=O)N/N=C/C=C/c1ccccc1,-3.4%,x,-3.6%,x,0.3%,x,x,5.7%
CCOC(=O)CNS(=O)(=O)c1cc(-c2n[nH]c(=O)c3ccccc23)ccc1C,-6.4%,17.0%,16.0%,-8.4%,-0.7%,2.3%,-8.7%&-8.7%,8.4%
CCC12CN(C(=O)c3ccc(C)cc3)CC(CC)(CN(C(=O)c3ccc(C)cc3)C1)C2=O,-17.2%,0.0%,7.4%,-3.3%,6.7%,-3.6%,u,-2.7%
CCCCc1nc(NCc2ccccc2)c(C#N)c2c1CCCC2,9.3%,-0.6%[46.1 µM],3.2%,-4.6%,1.0%,-10.2%,23.1%[46.1 µM],-5.7%
CCOCc1nnc(NC(=O)c2cc(C(=O)OC)cc([N+](=O)[O-])c2)s1,-6.2%,-12.3%,-1.1%,x,-0.1%,x,u,0.5%
CCCOc1ccc(NC(=O)CC2C(=O)N(Cc3ccccc3)C(=S)N2Cc2cccs2)cc1 (stereo not drawn),-12.5%,u,0.0%,u,11.1%,-3.4%,u,3.55µM*
CCC(CC)c1nnc(NC(=O)C2=COCCO2)s1,-14.7%,22.6%,28.9%,x,0.6%,x,u,x
CC(C)CCN1CCNC(=O)C1CC(=O)NCCCN1CCOCC1 (stereo not drawn),3.0%,x,11.3%,x,13.1%,x,x,1.2%
Cc1cc(Cl)c(C)c(S(=O)(=O)N2CCN(C(=O)C3CCCO3)CC2)c1Cl (stereo not drawn),8.6%,0.0%,-26.9%,x,0.0%,x,-12.4%,x
O=C(c1cc(-c2cccs2)on1)N1CCCCC1,-7.9%,u,29.7%,5.9%,-2.0%,2.0%,u,-5.5%
O=C(NCc1ccc(Cl)cc1)c1cnc2sc(N3CCOCC3)nn2c1=O,x,12.1%[46.1 µM],-21.2%,-2.3%,x,2.7%,x,x
COc1ccc(C(C)NC(=O)c2ccccc2Cl)cc1OC (stereo not drawn),7.7%,u,-5.1%,9.3%,11.2µM*,-0.9%,u,-9.9%
CCCCCn1c(CNC(=O)CCC)nc2ccccc21,-6.2%,x,-18.1%,5.3%,3.4%,0.7%,x,-3.5%
O=C(CCc1nnc(CCCCc2ccccc2)o1)N1CCN(CCO)CC1,1.8%,u,12.2%,x,1.1%,x,13.0%[46.1 µM],3.9%
# The listing continues.
SMILES,RE007 growth inh,LASV entry inh,StopGo reporter,Cruzain noTriton,SARS PLpro yeast,Cruzain Triton,Marburg entry inh,NS1 inh
O=C(c1cc2c(s1)-c1ccccc1S(=O)(=O)C2)N1CCN(Cc2ccccc2)CC1,-3.6%,x,20µM*,-1.1%,14.8%,-1.2%,-1.8%,-13.9%
COc1ccccc1CN1CC(C(=O)N(C)Cc2ccncc2C)CCC1=O (stereo not drawn),9.7%,1.3%,1.7%,x,0.7%,x,-17.5%,11.6%
O=C(c1cccs1)N1CCc2ccccc2C1,-9.2%,13.7%,33.3%[activator],x,0.8%,x,u,3.3%
O=S(=O)(Nc1ccc(O)cc1)c1cccc2cccnc12,3.2%,x,10.0%,1.7%,6.6%,-6.4%,x,u
CCn1c(SCC(=O)c2c(N)n(C3CC3)c(=O)[nH]c2=O)nnc1-c1ccccc1OC,0.8%,0.0%,-10.9%,x,-1.2%,x,9.4%,x
Cc1cccc(-c2noc(CSc3nc(-c4ccc(F)cc4)cc(=O)[nH]3)n2)c1,x,4.3%[46.1 µM],8.3%,29.6%,x,3.2%,x,x
CCC(C)(C)NC(=O)C(c1ccc(C)cc1)N(CC1CCCO1)C(=O)CCC(=O)Nc1ccccn1 (stereo not drawn),-6.6%,-11.1%[46.1 µM],-7.9%,x,1.5%,x,u,18.4%
COc1ccc(S(=O)(=O)NCc2ccncc2)cc1OC,-13.6%,-8.6%,19.5%,-0.2%,u,-1.4%,-18.9%,1.8%
COC(=O)C1=C(C(=O)OC)[C@@H]2N(Cc3ccccc3)c3ccccc3[C@@]23C[C@@H](C(=O)OC)N(C(=O)COCc2ccccc2)C3=N1,-3.7%,x,u,x,5.7%,x,x,0.7%
COc1ccccc1N1CCN(CCC(=O)Nc2cccc(Cl)c2)CC1,-6.0%,x,u,x,2.1%,x,x,-4.7%
CC(=O)N1CSCC1C(=O)NNS(=O)(=O)c1cccc(C(F)(F)F)c1 (stereo not drawn),-12.5%,-5.9%,-23.9%,x,0.9%,x,-27.9%,2.8%
Cc1ccc(NC(=O)Nc2ccc3snnc3c2)cc1C,x,-2.1%[46.1 µM],11.1%,-8.3%,x,-12.3%,2.6%[46.1 µM],x
Cc1ccc(C)c(S(=O)(=O)NCC(=O)NCc2ccco2)c1,-15.7%,7.1%,-9.2%,3.4%,14.6%,-2.5%,29.3%,-8.7%
Cc1nnnn1/C(=C\c1ccccc1)C(=O)OCC(=O)N1CC2(C)CC1CC(C)(C)C2 (stereo not drawn),-3.7%,-22.6%,31.6µM*,u,-13.7%,-0.1%,u,-25.1%
O=C(Nc1ccc2ccccc2c1)N1CCCN(CCOc2ccccc2)CC1,-6.9%,x,-17.7%,x,-2.0%,x,x,-3.6%
O=C(CSc1ccccc1)N1CCN(c2ccccc2)CC1,-19.4%,u,18.4%,-4.8%,u,-1.2%,1.7%,-7.6%
COc1cc(NC(=O)Cc2c(C(=O)O)[nH]c3ccccc23)cc(OC)c1OC,1.0%,4.1%,x,-3.9%,6.5%,0.0%,-8.1%,7.9%
COCCNC(=O)Cn1nc(C(F)(F)F)c(Br)c1C,15.0%,6.7%,x,10.3%,-1.0%,-2.1%,2.9%,13.7%
CCOC(=O)CN1C(=O)NC2(CCCc3ccccc32)C1=O (stereo not drawn),6.4%,20.0%[46.1 µM],-20.3%,x,0.3%,x,25.4%[46.1 µM],0.3%
O=C(CSc1nnnn1C1CCCCC1)Nc1nc2c(s1)CCCC2,17.1%,x,-14.2%,-0.8%,x,-4.2%,0.0%,-49.2%
Cc1ccc(-n2nc3c(N4CCC(C(=O)NCCc5ccco5)CC4)nnc(C)c3c2C)cc1,-2.9%,x,u,x,-4.7%,x,x,1.1%
COc1ccc(NC(=O)Cn2c(=O)n(Cc3ccco3)c(=O)c3oc4ccccc4c32)cc1Cl,x,3.5%[46.1 µM],-4.2%,-6.1%,x,-4.9%,x,x
CCCC[N+]12CCC(CC1)C(Cc1ccccc1)C2 (stereo not drawn),-20.5%,12.6%,-5.3%,x,-0.1%,x,19.2%[46.1 µM],-0.3%
CCOC(=O)CSc1cn2c(n1)CCC2,19.6%,-0.6%,0.0%,0.9%,4.6%,-4.4%,18.7%,-0.9%
COc1ccc(CNC(=O)Cc2c(C)c3cc4c(C)coc4cc3oc2=O)cc1,x,-1.7%[46.1 µM],7.3%,-6.3%,x,0.1%,4.3%[46.1 µM],x
# Further compounds
SMILES,RE007 growth inh,LASV entry inh,StopGo reporter,Cruzain noTriton,SARS PLpro yeast,Cruzain Triton,Marburg entry inh,NS1 inh
COC(=O)CCNC(=O)Cc1c(C)n(C(=O)c2ccc(Cl)cc2)c2ccc(OC)cc12,-6.9%,x,-29.4%,x,-1.4%,x,-1.3%[46.1 µM],-3.5%
CCN1C(=O)[C@H]2[C@@H](c3ccc(Cl)cc3)N3C(=O)CN(CCOC)C(=O)[C@@]3(Cc3ccccc3)[C@H]2C1=O,-1.1%,x,-21.9%,x,0.9%,x,x,-5.0%
[N-]=[N+]=NC1CC(CO)OC1n1ccc(=O)[nH]c1=O (stereo not drawn),-7.1%,x,3.7%,x,5.1%,x,x,8.0%
Cc1ccc(C)c(NC(=O)Cn2c(=O)n(-c3ccc(CC(=O)NCC4CCCO4)cc3)c(=O)c3ccccc32)c1 (stereo not drawn),x,8.8%[46.1 µM],-5.1%,u,-3.0%,-1.1%,-18.6%&-18.6%[46.1 µM],x
Cc1ccccc1C(=O)N1CCN(c2ccc(NC(=S)NC(=O)c3ccco3)cc2)CC1,22.7%,x,25.1µM*,x,-9.7%,x,x,-42.7%
N#CCOc1nc(N2CCCC2)nc(N2CCCC2)n1,-10.1%,-12.6%,4.3%,3.8%,4.8%,0.4%,2.6%,-12.3%
CC(Oc1ccc(Br)cc1)C(=O)Nc1ccc(N2CCOCC2)cc1N1CCOCC1 (stereo not drawn),-2.6%,-20.0%,-18.9%,x,-2.9%,x,-34.5%,x
CCOc1ccc(-c2nc[nH]c2[N+](=O)[O-])cc1,6.7%,0.0%[46.1 µM],-8.7%,x,-0.1%,x,u,x
COc1ccc(C=O)cc1COc1ccc(C)cc1[N+](=O)[O-],1.8%,7.0%,5.2%,9.8%,5.5%,-6.4%,0.3%[46.1 µM],10.8%
COc1cccc(CNCC(O)(c2ccc(Cl)cc2)c2ccc(Cl)cc2)c1,-0.6%,-11.1%,u,-4.9%,-2.7%,-8.6%,18.3µM*,-60.4%
CCCc1nnc(SCC(=O)N2CCCCC2)n1CCCOC,2.3%,15.8%,7.8%,-0.3%,-2.2%,4.5%,-12.4%,7.2%

# Screens (PubChem)
